Screening data from PubChem.
Bead autofluor: counter-screen for toxin protease inhibitors: compound fluorescence | compound autofluorescence counterscreen, microsphere flow cytometry; hits give high values | fluorescence intensity (concentration not given with the values) | AID 624483 | 3.1% of 360,000 active;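 active means at least 3 SD above the mean of all compounds, about 16000 in these data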;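 further: 100 nL of 1 mM stock went into each well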
PrP 5UTR inh: inhibition of PrP 5' UTR reporter expression; 0.35% of 340,000 active; cell-based PrP 5' UTR mRNA reporter, plate reader; inhibition, % (concentration not given with the values);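 active means every replicate at 50% or more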;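 further: 0 = median of the neutral control wells; tested in H4 reporter cells; numbers are from one replicate; inactives centre near -14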
BJeLR lethal: MLPCN primary cell-based screen for lethality selective to Ras in HRASV12 cells | BJeLR (HRASV12) viability, CellTiter-Glo ATP luminescence, 48 h; reference of the scale not given here | inhibition, % (concentration not given with the values) | 0.17% of 300,000 active;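 active means replicate mean above 50%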;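 further: 50 nL library stock added to about 25 µL; numbers are from one replicate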
Mtb hypoxia rep: PubChem AID 1159583; M. tuberculosis hypoxia-regulated fluorescent reporter, fluorescence; fluorescence inhibition, % (test concentration not listed); 0.1% of 300,000 active;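 active means 35 to 45% if threefold the growth effect, above 45% if 1.5-fold the growth effect; inactive means the rest, general growth blockers included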;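 further: wells of about 50 µL received 100 nL stock; 0% = vehicle wells and 100% = reference inhibitor wells; whole bacteria with a GFP reporter of the hypoxia response; strong numbers were not always called active; many hits fall short of the cut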
Sa RN4220 lethal: growth inhibition of S. aureus RN4220, primary screen, OD600; 16 h; inhibition, % (concentration not given with the values); 0.33% of 330,000 active;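 active means z-score of -3 or lower and OD600 up to 0.18 on both plates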;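 further: plate controls were untreated cells for no effect and reference antibiotic for full effect; stock transfer was 100 nL into about 80 µL; one replicate is shown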
Sa ugtP lethal: growth inhibition of ugtP-null S. aureus, primary screen, RN4220 ugtP deletion, OD600; 16 h; some inactives read as strong as hits; growth inhibition, % (no concentration beside the values); 0.54% of 330,000 active;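 active means z-score under -3 and OD600 up to 0.15 on both plates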;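 further: plate controls were untreated wells for no effect and antibiotic for full effect; wells of about 80 µL received 100 nL stock; the first replicate is given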
Mtb hypoxia rep growth: further read-out of Mtb hypoxia rep, marked with its call; growth inhibition, %; measured here: M. tuberculosis growth (absorbance);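 0% = vehicle and 100% = reference antibiotic; read after six days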
Active calls of the source: *; / = no result given; & = joins results of further samples.

nr	canonical_smiles	Mtb hypoxia rep growth	Sa RN4220 lethal	BJeLR lethal	Bead autofluor	Sa ugtP lethal	Mtb hypoxia rep	PrP 5UTR inh
1	CCc1c(O)c(C(C)=NO)c(=O)n(-c2ccccc2)c1-c1ccccc1	12	11	/	/	0	7	/
2	O=C(CSc1c2c(nc3ccccc13)CCC2)N1CCCC1	7	2.7	-1	2426	6	6	-8
3	COCCN1Cc2cccc(C(=O)Nc3cc(C)cc(C)c3)c2C1=O	10	0.9	9	4938	4	10	-3
4	Cc1nn(-c2ccccc2)nc1CNC(=O)C1CCC1	4	3.1	-9	6198	8	-1	-5
5	N#Cc1ccc(-c2cccnc2)nc1SCC(N)=O	8	2.1	1	6020	3	-4	/
6	CC1Oc2ccccc2N(Cc2cccc(F)c2)C1=O (configuration not stated)	-13	4.1	-3	/	10	7	9
7	O=C(CCn1c(=S)oc2ccccc21)NC1CCCCCCC1	1	4.5	-2	4336	9	-8	-4
8	COc1cccc(NC(=S)N2C3CCCC2CC(NC(=O)C2CC2)C3)c1 (configuration not stated)	/	/	-1	3231	/	/	-26
9	C=CCN(CC=C)C(=O)C1CCN(S(=O)(=O)c2ccc(-n3cnnn3)cc2)CC1	8	1.1	0	5720	8	2	-5
10	Cc1ccc2nc(C)c(C(=O)N/N=C/c3cccs3)cc2c1	/	/	-12	2664	/	/	-20
11	NC(=O)c1ccc(-n2nnnc2SCC(=O)Nc2ccc(F)cc2)cc1	-2	0.1	0	3026	6	2	-23
12	O=C(CSc1nnc(CNC(=O)c2ccc(F)cc2)o1)c1ccccc1	-5	-0.5	-2	5722	0	2	7
13	N#CCc1c(C#N)c(N)nc(N2CCN(S(=O)(=O)c3ccccc3)CC2)c1C#N	-4	-12	1	3605	-2	12	-24
14	C/C(O)=C(\C#N)c1nc2ccccc2[nH]1	/	/	-1	3295	/	/	-13
15	O=C(CSc1nnc2c3ccccc3c3ccccc3c2n1)Nc1ccccc1F	/	/	-5	2832	/	/	-10
16	COc1ccc(N(C)S(=O)(=O)c2cccc(C(=O)NCc3ccc4c(c3)OCO4)c2)cc1	0	-4.4	6	3547	-10	5	-9
17	C#CCOCCOCCOCCNc1nc(N2CCN(C(=O)[C@H]([C@@H](C)CC)n3cc(CCCN=C(N)N)nn3)CC2)nc(N2CCN(C(=O)[C@H](CCCCN)n3cc(CCC(=O)O)nn3)CC2)n1	/	/	-4	3994	/	/	-10
18	CC(=O)N1CCN(c2ccccc2NC(=S)NC(=O)c2cc3ccccc3o2)CC1	-4	1.2	-8	6361	2	-4	-3
19	O=C(O)c1ccc(NC(CSCc2ccc(F)cc2)C(=O)O)c([N+](=O)[O-])c1 (configuration not stated)	-3	6.7	4	6897	7	2	-15
20	CCCCN(C)C(=O)C1CCN(c2ccc(S(=O)(=O)N3CCOCC3)cc2[N+](=O)[O-])CC1	4	1.0	-1	6155	11	5	-19
21	CCOC(=O)CNC(=O)c1sc2nc(C)cc(C)c2c1N	10	2.5	-5	3212	5	7	-25
22	CC(Cc1ccccc1)=NNC(=O)CNC(=O)COc1cccc(C)c1	-1	-0.9	/	/	3	-4	/
23	Fc1ccc(CNCc2ccc(Br)cc2)cc1	1	2.0	-1	2508	-1	9	-14
24	COc1ccc(C(=O)C2CCN(CC(=O)Nc3cc(C)cc(C)c3)CC2)cc1	7	3.6	1	2997	-3	-11	-7
25	N#Cc1ccccc1NCC(=O)N1CCN(S(=O)(=O)c2ccccc2)CC1	3	0.4	/	4399	7	6	0
26	CC/C(C)=N/NC(=S)NCc1ccco1	/	/	1	2397	/	/	-17
27	CCOC(=O)c1cnn(-c2ccccc2)c1NC(=O)c1cccs1	4	6.2	-4	7163	13	3	1
28	COC(=O)c1c(N2C(=O)CCC2=O)sc2c1CCCC2	/	8.1	0	4540	8	/	-12
29	CCCCNc1cc(C)nc(N2CCOCC2)n1	/	3.3	0	2808	-11	/	-25
30	Clc1ccc(NN=Cc2cccs2)nn1	8	4.8	/	/	8	7	/
31	C[C@H](NC(=O)NCc1cccs1)C(=O)O	0	2.6	7	21235*	3	-1	-5
32	O=C(NNC(=O)c1ccc(Cl)nc1)c1ccc(Br)cc1	1	3.4	/	2776	6	10	-22
33	CCOC1OC(C(=O)Nc2ccccc2)=CC(c2cn(C(C)=O)c3ccccc23)C1CCCO (configuration not stated)	9	7.5	/	/	-9	12	/
34	O=C(NCc1ccc(S(=O)(=O)Nc2ccccc2Cl)s1)c1ccccc1	-12	6.9	0	/	1	-9	-16
35	Cc1ccc(OCC(=O)N(Cc2nnc(-c3ccccc3Cl)o2)C2CC2)cc1C	5	6.8	/	3788	3	10	-10
36	O=C(NC1CCN(Cc2ccccc2)CC1)c1c(F)cccc1F	6	4.5	-2	2697	4	0	-11
37	CN1CCC2(CC1)C1CN(C)CC=C1C(C#N)=C(N)C2(C#N)C#N (configuration not stated)	9&5	-2.9&1.1	10&1	10132&2265	1&6	-3&0	-56&-14
38	COc1ccc(NC(=O)c2cc(-c3cc(OC)c(OC)c(OC)c3)nc3ccccc23)cc1OC	12	-1.9	-1	5536	-10	0	-15
39	CCCC[C@@H]1CN=C(N)N1CCc1cc(C(F)(F)F)cc(C(F)(F)F)c1	/	/	1	2958	/	/	-13
40	O=C(COC(=O)Cc1ccc(F)cc1)Nc1cc(S(=O)(=O)N2CCOCC2)ccc1N1CCCC1	4	3.5	-9	2853	-2	3	-16
41	CN1CCC(N(C)C(=O)c2ccc(Cl)c(S(=O)(=O)N(C)c3ccc(Cl)cc3)c2)CC1	10	1.2	/	3696	5	12	-10
42	c1ccc(-n2ncc3c(NCCCN4CCOCC4)ncnc32)cc1	9	5.6	0	18090*	11	13	-26
43	CCc1ccc(NC(=O)CCCn2nc(CC)n3c(cc4occc43)c2=O)cc1	-2	3.9	15	7775	4	0	-21
44	COc1ccc(C(=O)Nc2ccc3oc(Cc4ccc(Cl)cc4)nc3c2)cc1OC	8	-1.6	4	5323	3	7	-12
45	Cc1cc(SCC(=O)NN=Cc2ccco2)nc2ccccc12	-2	2.5	/	/	-5	10	/
46	CCCCn1nnc(NC(=O)C(c2ccccc2)c2ccccc2)n1	5	-1.0	3	4534	12	10	-15
47	N#Cc1nc(COc2ccc(-c3ccccc3)cc2)oc1NCCCN1CCOCC1	/	/	8	2932	/	/	-11
48	OC(c1ccccc1)c1nc2ccccc2[nH]1 (configuration not stated)	8	-0.5	1	3308	5	15	-34
49	CC1Oc2ccccc2C=C1C=NNC(=O)[C@@H](C)NC(=O)OC(C)(C)C (some centres not stated)	-3	-0.8	/	/	-1	0	/
50	O=C(c1ccccc1)N1CCCC(C(=O)N2CCN(c3ccccc3)CC2)C1 (configuration not stated)	-8	3.8	-5	3990	8	-6	-16
51	CCCN(Cc1ccccc1)C(=S)Nc1ccc(OCC)cc1	-3	0.7	4	5890	2	6	-33
52	CCC(Cc1ccccc1)=NNC(=O)c1cc([N+](=O)[O-])cc([N+](=O)[O-])c1	-5	3.1	/	/	0	-3	/
53	COc1ccc(C2C(C#N)=C(N)OC3=C2C(=O)CC(C)(C)C3)c([N+](=O)[O-])c1OC (configuration not stated)	-1	0.4	-16	8974	6	-2	-8
54	O=c1cc(CSc2nnnn2-c2ccccc2)nc2sccn12	2	4.0	3	4199	5	11	8
55	CCc1c(C)nc2cc(-c3ccc(OC)c(OC)c3)nn2c1N1CCCC1	-6	-2.6	-10	10674	2	8	-6
56	CCc1ccc(NC(=O)CSc2nc(N)c(NC(=O)c3ccc(F)c(F)c3)c(=O)[nH]2)cc1	6	5.7	-9	/	8	4	-8
57	OC(C#Cc1ccccc1)(c1ccccc1)c1ccccc1	5	5.7	/	3828	3	11	-29
58	O=C(CCn1c(=O)c2ccccc2n(Cc2cc(=O)n3ccccc3n2)c1=O)NCc1ccco1	/	/	2	10875	/	/	-14
59	COc1ccc(S(=O)(=O)N(C)CC(=O)NCCN2CCOCC2)cc1C	4	1.2	-2	3476	17	10	-33
60	Cc1nn(C(C)C(=O)NCc2ccco2)c(=O)c2nn(-c3ccccc3)c(C)c12 (configuration not stated)	5	1.8	-11	6019	1	6	-13

(cont.)
nr	canonical_smiles	Mtb hypoxia rep growth	Sa RN4220 lethal	BJeLR lethal	Bead autofluor	Sa ugtP lethal	Mtb hypoxia rep	PrP 5UTR inh
61	CC(=O)Nc1ccc(S(=O)(=O)n2cnc3cc(C)c(C)cc32)cc1	7	1.2	4	4317	-20	4	-14
62	O=C(CN1CCCCCC1)Nc1ccc(S(=O)(=O)N2CCCCC2)cc1	7	-4.8	-4	3614	2	-6	-5
63	CC(C)NCC(O)COC1CCC(C(C)(C)C)CC1 (configuration not stated)	-3	3.2	6	3399	6	3	15
64	O=C(NCc1ccc2c(c1)OCO2)c1c(O)c2cccc3c2n(c1=O)CCC3	3	1.7	2	2436	4	5	8
65	CCCCCCCCCCOC(=O)NC1CCS(=O)(=O)C1 (configuration not stated)	5	6.1	-4	4335	3	6	-12
66	Cc1cccc(C(=O)NCCCN(C)CCCNC(=O)c2cccc(C)c2)c1	0	-0.1	12	4001	2	3	-17
67	CCOc1ccc(NC(=O)CC2C(=O)N(CC)C(=S)N2CCN2CCOCC2)cc1 (configuration not stated)	4	21	-12	4085	5	14	-24
68	Cc1onc(-c2ccccc2)c1C(=O)N1CCCN2C(=O)c3ccccc3C21 (configuration not stated)	-4	0.0	-7	5529	10	16	-90
69	Cc1nn(-c2ccccc2)c(C)c1NC(=O)Cc1cccs1	/	-0.7	-3	4120	6	/	-13
70	CC(=O)Nc1ccc(S(=O)(=O)N2CCN(c3cc(C)ccc3C)CC2)cc1	10	-9.6	5	5850	-7	4	-24
71	O=C(Nc1ccc(N2CCOCC2)c(Cl)c1)c1ccco1	/	1.0	-1	2947	0	/	-89
72	CC(=NNc1cc(C)nc(-c2ccccc2O)n1)c1ccccc1O	2	21	/	/	-5	2	/
73	C[C@@H]1CC[C@]2(O[C@H](CCO)C[C@H](O)[C@H]2O)O1	/	/	-10	3434	/	/	-1
74	Clc1ccc(C=NNc2ccccn2)cc1	4	-2.6	/	/	-12	7	/
75	O=C(CSCC(=O)Nc1cccc2ccccc12)Nc1cccc2ccccc12	3	4.5	0	4775	17	1	-18
76	CC(=O)N1CC2(C)CN(C(C)=O)CC(C)(C1)C2	6	5.9	16	8691	-12	-6	-4
77	Cc1ccc(N(C(=O)c2ccc(CN3CCOCC3)o2)C(C(=O)NCCC(C)C)c2cccs2)c(C)c1 (configuration not stated)	7	-0.5	2	2006	9	-2	-2

Part of the list above in a different format:
#69 Cc1nn(-c2ccccc2)c(C)c1NC(=O)Cc1cccs1
  Mtb hypoxia rep growth: /	Sa RN4220 lethal: -0.7	BJeLR lethal: -3	Bead autofluor: 4120	Sa ugtP lethal: 6	Mtb hypoxia rep: /	PrP 5UTR inh: -13
#70 CC(=O)Nc1ccc(S(=O)(=O)N2CCN(c3cc(C)ccc3C)CC2)cc1
  Mtb hypoxia rep growth: 10	Sa RN4220 lethal: -9.6	BJeLR lethal: 5	Bead autofluor: 5850	Sa ugtP lethal: -7	Mtb hypoxia rep: 4	PrP 5UTR inh: -24
#71 O=C(Nc1ccc(N2CCOCC2)c(Cl)c1)c1ccco1
  Mtb hypoxia rep growth: /	Sa RN4220 lethal: 1.0	BJeLR lethal: -1	Bead autofluor: 2947	Sa ugtP lethal: 0	Mtb hypoxia rep: /	PrP 5UTR inh: -89
